Compound activity deposited in PubChem by National Center for Advancing Translational Sciences (NCATS).
YjeE inh – qHTS Assay for Inhibitors of YjeE; tRNA threonylcarbamoyladenosine biosynthesis protein TsaE (Escherichia coli (strain …; purified YjeE, fluorescence polarisation of a bound ADP probe; Potency, µM; 0.05% of 71,000 active; AID 605, 2007; active = well fitted falling curve; inconclusive = weaker or top-dose-only fall, or a rising curve; inactive = flat or poorly fitted curve;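 also: top concentration of the series not given in the record; excess ADP was the control for the full effect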
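Fluorescence polarization of a BODIPY Texas Red–ADP probe (2 uM) bound to purified YjeE (10 uM) was read after 15 min room-temperature incubation with compounds. Loss of polarization marks inhibitors; ADP serves as titrated control.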
PK Bst – Pyruvate Kinase. partly purified Bacillus stearothermophilus pyruvate kinase, luminescence ATP production; ribose 5-phosphate activator present at AC10. Potency, µM. 1.2% of 51,000 active. AID 361, 2006; in the data active means potency below about 11 µM; inconclusive means mostly about 12 µM to 25 µM; inactive means weaker than that;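 the screen sought inhibitors and activators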;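 also: potency is read from the fitted curve at half-maximal effect; scaled between full activation by ribose 5 phosphate and full inhibition by luteolin; about four in five hits inhibit and the cells do not say which; series up to 57 µM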
Starred values were filed as active, the others as inactive; i = inactive; ? = inconclusive; . = no result given. Not all compounds are listed (hit frequency here may not be typical).

SMILES | YjeE inh | PK Bst
COc1cccc(CN2CCCC(C(=O)N3CCCCC3)C2)c1OC (centres undefined) | i | >57
CCCOc1ccc(/C(O)=C2\C(=O)C(=O)N(CCCN(C)C)C23C(=O)N(C)c2ccccc23)cc1 (centres undefined) | i | >57
O=C(CCN1C(=O)C2CC=CCC2C1=O)N1CCN(c2ccccn2)CC1 (centres undefined) | i | >57
Cc1cc(NC(=O)CN2CCC(O)(c3cccc(F)c3)CC2)no1 | i | >57
COc1ccc(-n2nc3ccccc3n2)cc1 | i | .
COC(=O)[C@@]1(Cc2ccc(F)cc2)[C@H]2c3cc(C(=O)N(C)C)n(Cc4ccc(C(F)(F)F)nc4)c3C[C@H]2CN1C(=O)c1ccccc1 | i | .
CCCOC(=O)CCNc1n[nH]c(=O)[nH]c1=O | i | .
COc1ccc(-c2nnc(CSc3nnc(-c4ccncc4)n3C3CCCCC3)o2)cc1OC | i | >57
CCC(C)NC(=O)CSc1nnc(-c2ccc(C(C)(C)C)cc2)n1C (centres undefined) | i | >57
Cn1c(=O)oc2cc(S(=O)(=O)NCCC(=O)N3CCc4ccccc43)ccc21 | i | >57
CN(CC(=O)NCc1ccco1)S(=O)(=O)c1cccc2cccnc12 | i | .
Cc1ccc(C)c(N(C)S(=O)(=O)c2cccc3nsnc23)c1 | i | >57
O=C(Nc1cccc(Cl)c1)N(CCCN1CCOCC1)Cc1ccccc1F | i | >57
CCN(CC)c1ccc(C2C(C(=O)OC)=C(C)NC(C)=C2C(=O)OC)cc1 | i | >57
CCOP(=O)(c1ccccc1)c1nc(-c2ccccc2C)oc1N1CCCCC1 (centres undefined) | . | >26
CCOC(=O)c1cccc(NC(=O)CNS(=O)(=O)c2cccs2)c1 | i | >57
CC(=O)N1c2ccccc2C(=O)C1N1CCCCC1 (centres undefined) | i | >57
Cc1nc(CSc2nnc(C)s2)cs1 | i | >57
Cn1cnc(S(=O)(=O)NCc2cccs2)c1 | i | >57
CC(C)C1C(C#N)=C(N)Oc2n[nH]c(-c3cccs3)c21 (centres undefined) | i | >57
COc1cccc(N2C(=O)C3C(C2=O)C2C=CC3C23CC3)c1 (centres undefined) | i | >57
O=C(O)C1C2C=CC3(CN(Cc4ccco4)C(=O)C13)O2 (centres undefined) | i | .
COC(=O)CN1C(=O)C(O)(CC(=O)c2ccc(Br)cc2)c2ccccc21 (centres undefined) | i | .
CCCCC(c1nnnn1CC1CCCO1)N1CCN(c2nc3ccccc3s2)CC1 (centres undefined) | i | >57
COc1ccccc1Oc1c(C)oc2cc(OC(=O)c3ccco3)ccc2c1=O | i | >57
O=C(O)C1CCCCC1C(=O)N1CC=C(c2ccccc2)CC1 (centres undefined) | i | >57
CN1CCN(CCCn2cnc3c(=O)oc4ccccc4c32)CC1 | i | >57
CCOC(=O)C1=C(C)NC(C)=C(C(=O)OCC)C1C(=O)OCC(=O)N1CCCCC1CC (centres undefined) | i | >57
CNCCCc1[nH]nc(N)c1C#N | i | >57
CCCOc1ccc(CC(=O)NCc2ccco2)cc1OC | i | >57
COc1cc2cc3c4c(cc(OC)c(OC)c4c2cc1OC)CCN3C | i | .
COc1ccc(CN(C)CC(=O)c2c(N)n(Cc3ccccc3)c(=O)n(C)c2=O)c(OC)c1 | i | >57
O=C(NCc1ccco1)C1Cc2ccccc2CN1S(=O)(=O)c1ccccc1F (centres undefined) | i | >57
CC1=C(C)C(=O)N(c2ccc(C(=O)O)cc2)C1=O | i | >57
Cc1cc2oc(=O)cc(C)c2cc1NC(=O)CCC(=O)O | i | >57
Cc1ccc(S(=O)(=O)N2CCCC(C(=O)NCC3COCCO3)C2)cc1 (centres undefined) | i | >57
C=CCn1c(SCc2nc3ccccc3[nH]2)nnc1-c1ccccn1 | i | >57
Cc1cccc2sc(NC(=O)CN(C)S(=O)(=O)c3ccc(Br)s3)nc12 | i | >57
O=c1c(-c2ccccc2)nc2cnc(N3CCOCC3)nc2n1CCc1ccccc1 | i | .
COc1ccc(N2CCN(S(=O)(=O)c3cccc4cccnc34)CC2)cc1 | i | .
CCOc1ccc(-c2nnc(NC(=O)CCCOc3cccc(C)c3)o2)cc1 | i | >57
O=C1C/C(=C/NCc2ccccc2)C(=O)N1 | i | .
C=CC[C@H](N)C(=O)O | i | .
O=C(O)C1Sc2[nH]c(=O)sc2C2c3cc(Cl)ccc3OC(=O)C12 (centres undefined) | i | ?
Cc1cccc(NC(=O)c2cc(-c3ccco3)nc3ccccc23)n1 | i | >57
O=C(O)C1CCCCC1C(=O)Nc1ccccc1Nc1ccccc1 (centres undefined) | i | .
CC[N+](CC)(CCO)CCCN1C(=O)C2CC=C(Cl)CC2C1=O (centres undefined) | i | >57
COc1ccc(N(CC(=O)Nc2cccc(OC)c2)S(=O)(=O)c2c(C)nn(C)c2C)cc1 | i | >57
O=C1CCCN1c1ccc(S(=O)(=O)N2CCN(c3ccccn3)CC2)cc1 | i | >57
COC(=O)CCC(NC(=O)OCc1ccccc1)C(=O)NC(CC(C)C)C(=O)OC (centres undefined) | i | >57

More structures.
SMILES | YjeE inh | PK Bst
C=CCN(C(=O)CCC(=O)Nc1cc(C)on1)C(C(=O)NC(C)(C)C)c1cccc(OC)c1OC (centres undefined) | i | >57
O=C(Cc1cccs1)NCc1ccc2c(c1)OCO2 | i | >57
Cn1ncc2c(Nc3ccc4ccccc4c3)ncnc21 | i | .
Cc1cc(C(=O)CNCc2ccco2)c(C)n1-c1ccc(F)cc1 | i | .
COCc1nc2ccccc2n1Cc1ccc(Br)cc1 | i | >57
CC(C)NC(=O)c1ccc(-c2ccccc2C(F)(F)F)o1 | i | >57
CCOC(=O)C1=C(C)NC(=O)NC1c1ccc(OCC(=O)OC)c(OC)c1 (centres undefined) | i | >57
COc1cc(/C=N/O)ccc1OCc1ccc(C(=O)O)cc1 | . | 0.39*
COCCN1Cc2cccc(C(=O)Nc3cccc(OC)c3)c2C1=O | i | .
CCN(CCCNC(=O)CCc1nc(-c2ccc(OC)cc2)no1)c1cccc(C)c1 | i | >57
CCOC(=O)c1cc2c(=O)n3ccccc3nc2n(C(C)C)c1=NC(=O)c1ccncc1 | i | >57
Cc1ccc(-c2noc(CCC(=O)Nc3ccc(C)cn3)n2)cc1 | i | >57
Cc1ccc(S(=O)(=O)Nc2cc(C(=O)NCCN(C)C)ccc2N2CCCCC2)cc1 | i | .
Cc1ccccc1CN1CCN(S(=O)(=O)c2ccc(F)cc2)CC1 | i | >57
Nc1nonc1-c1nc2ccccc2n1CC(=O)N1CCCCC1 | i | >57
CC(=O)Nc1cccc(NC(=O)C2CCCN2C(=O)Nc2ccc(Cl)cc2)c1 (centres undefined) | i | >57
O=C(CCSc1nc2ccccc2o1)N1CCOCC1 | i | >57
COCCOC(=O)C1=C(C)NC2=C(C(=O)CC(C)(C)C2)C1c1ccc(N(C)C)cc1 (centres undefined) | i | .
O=C(Nc1cccc(Cl)c1)N(CCN1CCOCC1)Cc1cccc(Cl)c1 | i | >57
COCC(=O)NC(C)c1nc2ccccc2[nH]1 (centres undefined) | i | >57
CCc1ccc(S(=O)(=O)NCc2cn3ccsc3n2)s1 | i | >57
COc1ccc(CCNC(=O)C(C)OC(=O)c2ccco2)cc1OC (centres undefined) | i | >57
CCCN(CCC)CCNC(=O)C1CCN(Cc2nc(-c3ccc(Cl)cc3)oc2C)CC1 | i | >57
CC(C)C[C@@H](CC(=O)N[C@@H](CCCN)CC(=O)N[C@@H]1CCNC[C@H]1C(=O)N[C@H](CC(=O)N[C@@H](CCC(=O)O)CC(=O)O)Cc1c[nH]c2ccccc12)NC(=O)[C@@H]1CCCC[C@H]1N | i | .
CCC(=O)Nc1cccc(C(=O)c2ccccc2)c1 | i | >57
O=C1CC(C(F)(F)C(F)(F)C(F)(F)C(F)F)=Nc2ccccc2N1 | i | .
CCCCNC(=O)c1cn(C)c2ccc(S(=O)(=O)N3CCOCC3)cc2c1=O | i | >57
COCCCNC(=O)c1c(N)n(/N=C/c2ccccn2)c2nc3ccccc3nc12 | . | i
CCC(C)NC(=O)c1cnc2n(c1=O)CCS2 (centres undefined) | i | .
CCCCNC(=O)c1cc(-c2ccc(F)cc2)on1 | i | >57
Cc1cc(C(=O)Nc2ccc(S(=O)(=O)N3CCCC3)cc2)cs1 | i | >57
CN1CCN(C(=O)c2cc3nc(-c4ccccc4)cc(C(F)(F)F)n3n2)CC1 | i | >57
CCOC(=O)c1c(N)n(CCOC(=O)c2cccs2)c2nc3ccccc3nc12 | i | >57
O=C(OC(C(=O)NCc1ccc2c(c1)OCO2)c1ccccc1F)c1ccco1 (centres undefined) | i | >57
O=C(Nc1ccccc1)c1cccnc1Nc1ccccc1 | i | >57
Clc1cccc(Nc2nnc(-c3ccccc3)c3ccccc23)c1 | i | .
Cc1ccc(S(N)(=O)=O)cc1 | i | .
Cc1noc(C)c1C(=O)OCC(=O)/C=C1\N(C)c2ccccc2C1(C)C | i | >57
CCOc1ccc(NS(=O)(=O)c2ccc3[nH]c(=O)oc3c2)cc1 | i | .
CC(=O)c1ccc(NC(=O)CCc2c(C)nc3ncnn3c2C)cc1 | i | >57

A section taken from the entries so far, as a working copy:
SMILES | YjeE inh | PK Bst
O=C1CC(C(F)(F)C(F)(F)C(F)(F)C(F)F)=Nc2ccccc2N1 | i | .
CCCCNC(=O)c1cn(C)c2ccc(S(=O)(=O)N3CCOCC3)cc2c1=O | i | >57
COCCCNC(=O)c1c(N)n(/N=C/c2ccccn2)c2nc3ccccc3nc12 | . | i
CCC(C)NC(=O)c1cnc2n(c1=O)CCS2 (centres undefined) | i | .
CCCCNC(=O)c1cc(-c2ccc(F)cc2)on1 | i | >57
Cc1cc(C(=O)Nc2ccc(S(=O)(=O)N3CCCC3)cc2)cs1 | i | >57
CN1CCN(C(=O)c2cc3nc(-c4ccccc4)cc(C(F)(F)F)n3n2)CC1 | i | >57
CCOC(=O)c1c(N)n(CCOC(=O)c2cccs2)c2nc3ccccc3nc12 | i | >57
O=C(OC(C(=O)NCc1ccc2c(c1)OCO2)c1ccccc1F)c1ccco1 (centres undefined) | i | >57
O=C(Nc1ccccc1)c1cccnc1Nc1ccccc1 | i | >57
Clc1cccc(Nc2nnc(-c3ccccc3)c3ccccc23)c1 | i | .
Cc1ccc(S(N)(=O)=O)cc1 | i | .
Cc1noc(C)c1C(=O)OCC(=O)/C=C1\N(C)c2ccccc2C1(C)C | i | >57
CCOc1ccc(NS(=O)(=O)c2ccc3[nH]c(=O)oc3c2)cc1 | i | .
CC(=O)c1ccc(NC(=O)CCc2c(C)nc3ncnn3c2C)cc1 | i | >57

Further structures:
SMILES | YjeE inh | PK Bst
Cc1nc2cnc(Oc3cccc(Cl)c3)nc2n(CCc2ccccc2)c1=O | i | .
Clc1c(-c2nnc3n2CCCCC3)sc2ccccc12 | i | i
COc1ccc(-c2nc3cnc(N4CCNCC4)nc3n(-c3ccccc3)c2=O)cc1 | i | .
Cc1cc(C(F)(F)F)nn1CC(=O)Nc1cccnc1 | i | >57
NC(=O)CCCCn1ccc(NC(N)=NCC(F)(F)F)n1 | i | .
CC(C)OCCCNC(=O)Cn1nc(-c2ccccc2)ccc1=O | i | >57
CCSc1nnc(NC(=O)c2ccccc2)s1 | i | .
COCCCn1c(SCC(=O)Nc2ccc(C(C)=O)cc2)nc2ccccc2c1=O | i | >57
CCOc1cc(N2CCOCC2)c(OCC)cc1NC1=NCCCCC1 | i | >57
Cc1c(C(=O)OCc2ccccc2)nnn1-c1nonc1N | i | >57
O=c1[nH]c(=O)n(C2CCCCCC2)c(O)c1C=NCc1ccc(F)cc1 | i | >57
CCO/C=N/c1c(C#N)c(CC#N)nn1-c1ccccc1 | i | .
CCNC(=O)NC(=O)CSc1ccc(NC(C)=O)cc1 | i | >57
c1cncc(-c2ccc3ncnc(NCCN4CCOCC4)c3c2)c1 | i | .
COc1cccc(NC(=O)Cn2c(=O)n(CCCC(=O)NCc3ccco3)c(=O)c3ccccc32)c1 | i | >57
CC(=O)N1CCC2(CC1)C(C#N)=C(N)Oc1n[nH]c(CSc3ccc(C)cc3)c12 | i | >57
CCC(=O)N1CCc2cc(S(=O)(=O)CCC(=O)Nc3ccc(C)c(F)c3)ccc21 | i | >57
CC(C)(C)NC[C@H](O)c1ccc(O)c(CO)c1 | i | .
O=C(c1cc(C(F)(F)F)cc(C(F)(F)F)c1)N1CCC[C@@]2(CCN(c3ccncc3)C2)C1 | i | .
O=C1CC(c2cccs2)Sc2nc3ccccc3n21 (centres undefined) | i | i
COc1ccccc1N1CCN(S(=O)(=O)c2ccc(Cl)s2)CC1 | i | 11*
CCOC(=O)c1sc(NC(NC(=O)c2ccco2)(C(=O)OC)C(F)(F)F)nc1C (centres undefined) | i | >57
Cn1ccnc1SCc1cc(=O)[nH]c2ccccc12 | i | >57
O=C(CSc1ncc(-c2ccc(F)cc2)[nH]1)Nc1cccc(O)c1 | i | >11
O=C(Cc1cccs1)Nc1nnc(CCc2ccccc2)s1 | i | >57
N#Cc1c(/N=C/c2ccco2)sc2c1CCC2 | i | .
Cc1ccc(CN(CC(=O)NCCc2ccccc2)C(=O)CCCC(=O)Nc2cc(C)on2)cc1 | i | >57
CC(C)(C)c1ccc(SCC(N)=O)cc1 | i | >57
CCc1cc2ccc(C)cc2nc1SCC(=O)N1CCN(C(=O)c2ccco2)CC1 | i | .
CCCCN1Cc2cc(C(=O)c3cc(F)ccc3O)cnc2NC1=O | i | >57
CCCCN1C2CCCC1CC(NC(=O)c1ccc(OC)c(OC)c1)C2 (centres undefined) | i | >57
COc1ccc(-c2coc3cc(O)cc(O)c3c2=O)cc1 | i | ?
